# Source: PubChem BioAssay (National Center for Advancing Translational Sciences (NCATS))
# NS1 inh – inhibitors of influenza NS1 protein function. S. cerevisiae slowed by influenza A NS1, growth recovery by OD600. Potency, µM (top dose mostly 46.1 µM), without a hit: at the top dose activity, positive = more growth. 270,000 compounds, 0.4% hits. AID 2326; further: actives are rising curves; nearly all actives have a fitted effect of over 50% in size
#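 In this qHTS, NS1 from influenza A is expressed in budding yeast, where it slows growth. Cells are switched from glucose to 2% galactose medium (pH 6.0, -URA), treated with compound, and growth recovery is read at OD600.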
# 2A StopGo – FMDV 2A StopGo reporter, luciferase signal | human cells with a luciferase reporter of 2A StopGo recoding; control for the full effect not named in the record | Potency, µM (titrated, usually from 57.9 µM), for the others: top-dose signal change, negative = less light | AID 1159524 | 410,000 compounds, 1.2% hits; active = well fitted falling curve with a large enough effect; inconclusive = small, poorly fitted or top-dose-only effect; inactive = no such curve, though single readings can be large or run the other way; tested in HEK293T cells; further: on the % scale 0 is the no-effect control and ±100 the full control effect; nearly all actives have a fitted effect of over 45% in size; luciferase light after 4 h
# Cruzain inh Det – blocks cruzain activity in presence of Triton detergent | Potency, µM, without a hit: max response, negative = inhibition, usual class: inhibitors | 200,000 compounds, 0.43% hits | purified cruzain, Z-FR-AMC fluorescence, 0.01% Triton | P25779; active means well fitted curve in the direction sought with a large enough effect; inconclusive means small, poorly fitted or top-dose-only effect, or another doubt; inactive means no such curve, though single readings can be large; an effect the other way counts as inactive or inconclusive;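 further: plate controls were neutral wells for no effect and buffer without enzyme for full effect; nearly all actives have a fitted effect of over 40% in size; top concentration of the series not given in the record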
# Target sequence (P25779 123-467 limits assumed): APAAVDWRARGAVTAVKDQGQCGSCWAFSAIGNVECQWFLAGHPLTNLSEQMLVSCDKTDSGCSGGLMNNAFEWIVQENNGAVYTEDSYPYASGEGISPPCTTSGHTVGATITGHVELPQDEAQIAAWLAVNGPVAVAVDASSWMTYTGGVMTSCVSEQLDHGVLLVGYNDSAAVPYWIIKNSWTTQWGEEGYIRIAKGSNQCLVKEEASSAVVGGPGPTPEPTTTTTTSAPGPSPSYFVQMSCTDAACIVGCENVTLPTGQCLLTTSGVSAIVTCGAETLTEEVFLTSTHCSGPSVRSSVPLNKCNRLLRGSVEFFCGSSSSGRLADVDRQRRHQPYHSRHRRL
#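 In this qHTS format, compounds are incubated with 1.5 nM cruzain for 15 min at room temperature before 2 uM Z-FR-AMC is added. Release of AMC is followed at 360/450 nm, and progress is taken as the 60 s fluorescence difference.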
# RE007 growth inh – less growth of the S. pombe RE007 Vpr strain; S. pombe RE007 Vpr strain, BacTiter-Glo ATP luminescence, 24 h; control for the full effect not named in the record; AID 651644; 360,000 compounds, 0.21% hits; Potency, µM (series often up to 92.2 µM), inactives show at the top dose activity change, negative = less growth; active = well fitted falling curve with a large enough effect; inconclusive = small, poorly fitted or top-dose-only effect; inactive = no such curve, though single readings can be large or run the other way;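 further: on the % scale 0 is the no-effect control and ±100 the full control effect; nearly all actives have a fitted effect of over 50% in size; the assay follows cell death caused by Vpr and the record does not say whether a fall means rescue or toxicity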
#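 Fission yeast RE007 carrying one integrated HIV-1 vpr copy, seeded at OD 0.01 in PMG+AL medium with 23 nL pinned compound. Grown 24 h at 30 degrees; viability read by BacTiter-Glo luminescence after 5 min.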
# Cruzain noTriton – blocks cruzain activity in detergent-free assay. P25779. purified cruzain, Z-FR-AMC fluorescence, no detergent. Potency, µM, for inactives: max response, negative = inhibition, usual class: inhibitors. 200,000 compounds, 2.3% hits. AID 1476; active means well fitted curve in the direction sought with a large enough effect; inconclusive means small, poorly fitted or top-dose-only effect, or another doubt; inactive means no such curve, though single readings can be large; an effect the other way counts as inactive or inconclusive;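 further: plate controls were enzyme without inhibitor for no effect and buffer without enzyme for full effect; nearly all actives have a fitted effect of over 40% in size; top concentration of the series not given in the record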
#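 Detergent-free condition (0.00005% Triton X-100) in acetate buffer pH 5.5 with DTT. 1.5 nM enzyme and compound were pre-mixed 15 min, then 2 uM Z-FR-AMC substrate added; reaction progress from fluorescence change between first and third reads (60 s).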
# Marburg entry inh – inhibitors of Marburg virus binding or cell entry; Marburg virus pseudotyped entry inhibition, cell reporter; control for the full effect not named in the record; about a third of the inactives were read at about 46 µM; Potency, µM (series often up to 37.8 µM), without a hit: at the top dose activity change, negative = inhibition, most hits filed as inhibitors; 300,000 compounds, 1.8% hits; AID 540276; active = well fitted inhibition curve with a large enough effect; inconclusive = small, poorly fitted or top-dose-only effect, or effect the other way; inactive = flat fitted curve, though single readings scatter; tested in HEK293 cells; about a fifth of its hits are not listed in these tables; further: on the % scale 0 is the no-effect control and ±100 the full control effect; luciferase read-out
# SARS PLP yeast – blocks SARS-CoV papain-like protease in a yeast assay; S. cerevisiae expressing SARS-CoV PLpro, growth rescue; control for the full effect not named in the record; Potency, µM (doses to about 32.9 µM), without a hit: top-dose activity, positive = growth rescue; 330,000 compounds, 0.19% hits; further: 0% is about no effect; nearly all actives have a fitted effect of over 55% in size; growth read by luminescence after 48 h
# LASV entry inh – Lassa virus entry inhibition; Lassa virus pseudotype entry inhibition, cell reporter; control for the full effect not named in the record; AID 540256; Potency, µM (doses to about 37.9 µM), for inactives: at the top dose activity change, negative = inhibition, hits mostly inhibitors; 300,000 compounds, 1.2% hits; active means well fitted inhibition curve with a large enough effect; inconclusive means small, poorly fitted or top-dose-only effect, or effect the other way; inactive means flat fitted curve, though single readings scatter; tested in HEK293 cells; further: on the % scale 0 is the no-effect control and ±100 the full control effect; nearly all actives have a fitted effect of over 50% in size; luciferase read-out
# Active calls of the source: *; ? = inconclusive; nt = not tested or not shown; & = joins results of further samples; [ ] = another dose, or the depositor's remark. Unless noted, the call rests on the fitted dose curve; in most records, active means well fitted rising curve with a large enough effect; inconclusive means small, poorly fitted or top-dose-only effect; inactive means no such curve, though single readings can be large or run the other way. Potency means the concentration at half of the fitted maximal effect.
SMILES,NS1 inh,2A StopGo,Cruzain inh Det,RE007 growth inh,Cruzain noTriton,Marburg entry inh,SARS PLP yeast,LASV entry inh
Cc1ccc(Nc2nc(/N=C/N(C)C)n[nH]2)cc1C,nt,77.6%[activator],nt,2.3%,nt,24.4%,2.9%,6.6%
CC(=O)c1cc2c(=O)c3ccccc3oc2nc1C,nt,42.8%[activator],nt,12.4%,nt,16.9%&16.9%,nt,0.5%
Cc1c(/C(O)=C2\C(=O)C(=O)N(CCCN(C)C)C2c2ccccc2)cnn1-c1ccccc1 (stereo not drawn),0.8%,?,1.2%,12.6%,7.8%,4.3%[46.1 µM],16.6%,15.9%[46.1 µM]
COn1c(-c2ccc(Cl)cc2)nc2ncccc21,-7.2%,1.4%,nt,3.1%,nt,nt,0.8%,nt
O=C(CCc1ccc(S(=O)(=O)N2CCOCC2)cc1)Nc1ccc2ccccc2c1,5.2%,-23.2%,5.1%,0.2%,22.7%,-24.0%,2.9%,?
C=CCSC1=C(C#N)C(c2ccccc2)CC(=O)N1 (stereo not drawn),1.6%,-17.1%,-3.3%,10.4%,0.5%,-10.8%,-7.6%,-25.4%
CC(=O)Nc1ccc(NS(=O)(=O)c2ccc3c(c2)oc(=O)n3C)cc1,-61.5%,-4.9%,nt,2.7%,nt,nt,?,nt
C=CCc1ccc(OCCn2nnc3ccccc32)c(OC)c1,-28.8%,16.4%,nt,-6.7%,nt,nt,2.3%,nt
COC(=O)c1cc(S(=O)(=O)N2CCN(c3ccc(OC)cc3)CC2)cn1C,-7.4%,-3.5%,nt,14.4%,nt,nt,-3.7%,nt
Cc1c(C(=O)O)cnc2cc(-c3ccc(Cl)cc3)nn12,-178.4%,24.2%,0.2%,-10.3%,0.5%,nt,-6.7%,nt
CC(C(=O)Nc1nccs1)c1ccc([N+](=O)[O-])cc1 (stereo not drawn),4.5%,-9.4%,nt,3.7%,nt,nt,0.8%,nt
CN(C)S(=O)(=O)c1ccc(S(=O)(=O)N2CCCC2)cc1,6.3%,-6.2%,5.3%,-3.1%,-8.2%,-11.7%,4.3%,-3.9%
CS(=O)(=O)N(CC(=O)Nc1ccccc1Cl)c1ccc(Cl)cc1,0.3%,23.8%,nt,-11.0%,nt,0.5%[46.1 µM],-0.7%,3.9%
CCn1c(COc2ccc(=O)n(-c3ccccc3)n2)nnc1SCC(=O)OC,nt,3.5%,nt,-0.2%,nt,?,0.1%,13.9%
Cc1snc(SCc2c(F)cccc2Cl)c1C#N,0.0%,-5.8%,nt,?,nt,4.5%[46.1 µM],4.2%,-2.7%[46.1 µM]
Cc1ccc(C(=O)NNC(=O)c2ccc(SCC3CCCO3)c([N+](=O)[O-])c2)cc1 (stereo not drawn),-2.6%,?,-2.3%,-10.2%,8.9%,-1.6%,-1.3%,7.2%
CCOC(=O)c1cnc2ccc(C(=O)OC)cc2c1Nc1ccc(OCc2ccccc2Cl)cc1,nt,2.5%,-2.7%,nt,-5.5%,9.7%[46.1 µM],nt,?
CCN1C(=NCCOC)N[C@@H](c2cccc(F)c2)C(C(=O)OC)=C1C,-21.1%&8.6%,-12.4%,nt,-14.0%,nt,nt,1.1%&1.5%,nt
CC(C)C(=O)Nc1ccc(Br)cc1Cl,-0.6%,-8.2%,nt,-24.0%,nt,7.5%[46.1 µM],0.1%,5.5%[46.1 µM]
COc1ccc(CN2C(=O)c3cccnc3C2Nc2ccc(C)cc2)cc1 (stereo not drawn),-8.4%,-5.9%,-0.8%,-25.7%,3.3%,1.6%,-4.1%,9.9%
Cc1cccc(NC(=O)c2ccc([N+](=O)[O-])o2)c1C,nt,-18.2%,nt,-25.8%,nt,?,-2.7%,?
CC(C)N1CCN(Cc2coc3ccccc3c2=O)CC1CCO (stereo not drawn),0.2%,-8.7%,nt,29.4%,nt,-1.7%[46.1 µM],0.7%,21.7%
O=C(COC(=O)c1cccnc1Cl)NC(=O)c1ccc(OC(F)F)cc1,nt,-1.7%,nt,9.3%,nt,-13.7%,1.8%,16.2%
COc1ccc(C(=O)Nc2ccc(C(=O)OCC(=O)c3ccccc3)cc2)cc1,9.9%,-15.6%,2.1%,11.1%,6.31µM*,?,-0.4%,?
Cn1nc(-c2ccc(OCC(=O)Nc3ccc(Cl)cc3)cc2)c2ccccc2c1=O,nt,?,6.7%,nt,-11.7%,-4.5%[46.1 µM],nt,0.5%[46.1 µM]
CSc1nnc(-c2ccco2)n1-c1ccccc1,-61.9%,-5.7%,0.4%,-9.9%,-1.4%,7.5%,?,-7.0%
CN(C)c1ncnc2[nH]ncc12,nt,4.3%,nt,-16.0%,nt,-4.4%[46.1 µM],nt,-3.9%[46.1 µM]
Cc1ccc(N2CC(C(=O)NC3CC3)CC2=O)cc1 (stereo not drawn),9.3%,0.7%,nt,10.6%,nt,0.8%[46.1 µM],-2.0%,-14.0%[46.1 µM]
Cc1cc(C(=O)N2CCN(c3ncccn3)CC2)nn1C,-2.8%,-9.3%,nt,-4.0%,nt,-4.0%[46.1 µM],1.0%,?
COc1c(Cl)cc(C(=O)N(Cc2ccccc2F)C2CCS(=O)(=O)C2)cc1Cl (stereo not drawn),nt,0.0%,-11.8%,nt,6.1%,14.2%[46.1 µM],nt,1.6%[46.1 µM]
Nc1cc(C(=O)OCC(=O)NC(c2ccccc2)c2ccccc2)ccc1Cl,17.9%,-21.1%,-1.5%,nt,25.1µM*,?,18.3%,-4.7%
CCN(CC)CCn1c(N)cc(=O)[nH]c1=O,nt,-22.0%,nt,7.1%,nt,-14.7%,0.0%,7.0%
CC(C)Sc1nc2c(c(=O)n(C)c(=O)n2C)n1Cc1ccc(Cl)cc1,-50.7%,?,-2.4%,17.9%,?,-8.2%,-1.0%,-23.8%
Cn1nc(C(=O)NNC(=O)CCc2ccccc2Cl)c2ccccc2c1=O,nt,-24.3%,nt,4.6%,nt,8.4%,2.0%,24.7%[46.1 µM]
CCCNS(=O)(=O)c1ccc2c(c1)CCCN2C(C)=O,-3.1%,40.0%[activator],5.1%,11.5%,5.7%,2.6%[46.1 µM],-2.5%,0.7%
COc1cc(CNc2ccccc2Oc2cc(=O)n(C)c(=O)n2C)cc(OC)c1OC,-13.2%,-10.8%,0.7%,-9.4%,?,?,7.0%,-11.0%
S=c1[nH]c2ccccc2n1CCOc1ccccc1,-8.7%,26.7%,nt,5.1%,nt,nt,1.7%,nt
CCCC(CCC(=O)Nc1cc([N+](=O)[O-])ccc1O)C(=O)O (stereo not drawn),nt,32.3%[activator],nt,21.3%,nt,4.5%,2.7%,2.2%[46.1 µM]
Cc1ccc(CSCC(=O)N/N=C/c2ccc(OCC(=O)Nc3ccc(C)cc3)cc2)cc1,-5.0%,?,?,-16.2%,-0.3%,-11.9%,-2.0%,?
CN(C)Cc1nc2ccccc2c(=O)n1Cc1nc(-c2cccc([N+](=O)[O-])c2)cs1,nt,-24.9%,nt,12.0%,nt,9.7%[46.1 µM],-2.7%,?
N#Cc1c(N)n(C2OC(CO)C(O)C2O)c2ncnc(N)c12 (stereo not drawn),nt,-6.0%,nt,2.2%,nt,0.501µM*,nt,1.78µM*
Cc1ccc(C(=O)N/C(=C\c2ccco2)C(=O)N2CCOCC2)cc1C,19.0%,?,nt,-6.1%,nt,nt,1.2%,nt
COc1ccc(N2CCN(S(=O)(=O)CCNC(=O)Cc3ccc(OC)c(OC)c3)CC2)cc1,nt,-12.0%,-0.6%,nt,13.1%,nt,nt,-18.9%[46.1 µM]
O=S(=O)(Nc1nc2ccccc2nc1Cl)c1ccc2ccccc2c1,-13.9%,-17.8%,-12.4%,-1.2%,15.6%,-9.5%,-48.8%,2.1%
CCOCCn1c(C(C)O)nc2ccccc21 (stereo not drawn),0.7%,-15.8%,0.6%,3.5%,-2.8%,3.4%,11.2%,-5.0%
O=C(Nc1ccc(N2CCCC2)cc1)c1cc(Cl)ccc1Cl,1.8%,0.0%,nt,6.3%,nt,nt,0.9%,nt
Cc1ccc(C(C(=O)NCC2CCCO2)N(C(=O)c2snc(C(N)=O)c2N)c2ccc(C(C)C)cc2)o1 (stereo not drawn),6.5%,-19.5%,nt,13.3%,nt,?,0.9%,?
CCCOc1ccc(Cc2c(Cl)nc(SC)nc2NC)cc1,-10.5%,-3.8%,-8.6%,20.3%,2.8%,nt,-31.1%,nt
Cc1cc(C)cc(NC(=O)C2CCCN2S(=O)(=O)c2ccc3nc(-c4ccccc4)[nH]c3c2)c1 (stereo not drawn),nt,-15.0%,-8.4%,nt,-3.2%,nt,nt,-15.0%[46.1 µM]
Cn1ncc(Br)c1NC(=O)c1ccco1,1.7%,-8.3%,nt,3.9%,nt,6.0%,-1.1%,?
Cc1nc(-c2cccc(S(=O)(=O)N3CCCCCC3)c2)cs1,-3.9%,-27.6%,-8.8%,-16.1%,-11.5%,-3.9%,-14.9%,-10.2%
Cc1ccc(NC2(C#N)CCCC2)cc1,nt,-15.6%,nt,-1.6%,nt,9.4%[46.1 µM],nt,0.0%[46.1 µM]
Cc1ccc(C2=Nc3c(ccc4ccccc34)C(c3ccncc3)=NN2)cc1,-3.9%,26.0%,nt,-10.0%,nt,nt,-3.3%,nt
CSc1nc2ccc(NC(=O)c3cccs3)cc2s1,nt,27.7%,nt,-3.1%,nt,-17.4%,-2.5%,6.0%
CSc1ccccc1OCc1cc(C(=O)N2C[C@H]3CC[C@H]2C3)no1,-47.0%,32.2%[activator],nt,-5.4%,nt,?,?,?
Cc1ccc(NS(=O)(=O)c2ccc(NC(=O)C(C)Sc3ccc(Cl)cc3)cc2)c(C)c1 (stereo not drawn),-36.6%,?,-4.4%,13.4%,-0.1%,?,-18.5%,-8.1%
O=C(c1ccc(Cl)cc1)C1CCCN(C(=O)/C=C/c2ccccn2)C1 (stereo not drawn),-39.2%,-18.2%,nt,-14.5%,nt,-23.0%[46.1 µM],-2.7%,-2.8%
CCOc1ccccc1C(=O)Nc1cc(-c2nc3cccnc3s2)ccc1C,nt,4.7%,-12.8%,nt,?,nt,nt,-0.9%[46.1 µM]
